NPYLR7 agonist: activates Aedes aegypti NPYLR7 receptor; HEK293T NPYLR7/Galpha15, GCaMP6s calcium fluorescence; activation, % at 10 µM; 270,000 compounds, 0.15% hits; AID 1259423; in the data active = activation above about 40%;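 note: 0% = vehicle and 100% = reference agonist at the receptor; some compounds past the cut are filed as inactive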
NPYLR7 agonist max-min: second read-out of NPYLR7 agonist, no call of its own (marks repeat the call); activation, %; measured here: Max-Min RFU normalised activation; some inactives read as strong as hits;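 span of the calcium signal over five minutes; 0% = vehicle and 100% = native peptide agonist; compound fluorescence can raise it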
Numbers without * were called inactive; & = joins results of further samples. These rows are one share of the data. The share of hits here may be higher or lower than overall.

Value order: NPYLR7 agonist | NPYLR7 agonist max-min
1: CCC1CN(C(=O)C2CC2)CCC1NCc1ccccc1F (stereo unspecified)
  11 | 11
2: COc1ccc(CCN2CC(NC(=O)C3CCOCC3)CC2=O)cc1 (stereo unspecified)
  1 | -3
3: Cc1ccc(-c2cc(O)c3c(c2)CN(C(=O)COc2cccnc2)CCO3)cc1
  16 | 11
4: CN1CCN(C(=O)Cn2ncc3ccsc3c2=O)CC1
  1 | 1
5: C=CCn1c(=NC(=O)c2cccc(N3C(=O)CCC3=O)c2)sc2cccc(OCC)c21
  0 | -1
6: NC(c1cccc(F)c1)c1cccc(Br)c1 (stereo unspecified)
  0 | 3
7: CSc1ncccc1C(=O)N1CCN(C(c2ccc(F)cc2)c2ccc(F)cc2)CC1
  -2 | 2
8: CCOc1ccccc1NC(=O)N[C@@H](Cc1ccccc1)C(=O)N1CCC(C(=O)N2CCOCC2)CC1
  -7 | 10
9: CC(=O)Nc1ccc(Sc2cccc(F)c2C#N)cc1
  2&-1 | 1&12
10: Cc1nc(C)n(Cc2cccc(NC(=O)NC(C)(CO)C3CC3)c2)n1 (stereo unspecified)
  -4 | -5
11: CCOC(=O)c1[nH]c(C)c(CCC(=O)O)c1C
  11&13 | 3&7
12: Cc1nc(CN2CCC=C(CNC(=O)C3CCCCC3)C2)cc(=O)[nH]1
  11 | 7
13: CC(C)Cc1noc(-c2cc(Cl)ccc2N)n1
  -1 | -3
14: COCc1cc(C)nc(NN=Cc2ccc(-c3cccc([N+](=O)[O-])c3)o2)c1C#N
  -4 | -9
15: CCc1cccc(NC(=O)Nc2ccc(N3CCCC3)c(C(=O)NCc3ccc(F)cc3)c2)c1
  9&-6 | 10&0
16: COc1ccc(CC(=O)OCc2ccccn2)c(Cl)c1
  -1 | -3
17: CCN1CCN(c2c(CN(C(=O)c3ccc([N+](=O)[O-])cc3)C3CC3)c(C)nn2-c2cccc(F)c2)CC1
  0 | 0
18: Cc1ccc(NC(=O)c2cccc(N3CCCC3=O)c2)cc1Cl
  1 | 1
19: CN(C)c1ccc(C(=O)OCC(=O)Nc2ncc(Br)s2)cc1
  2 | 1
20: O=C(c1cccc(N2CCNC2=O)c1)N1CC(Oc2ccccc2F)C1
  3 | 3
21: COc1ccc(OC(C)C(=O)NCCOc2ccc3nnc(-c4ccccc4)n3n2)cc1 (stereo unspecified)
  -3 | -3
22: Fc1cccc(-n2nnc3c(N4CCNCC4)ncnc32)c1
  -3 | -4
23: O=C(Cc1c(F)cccc1F)N1CCc2c(sc3[nH]c(=O)n(Cc4ccco4)c(=O)c23)C1
  4 | 4
24: CS(=O)(=O)c1ccccc1C(=O)NCc1nnnn1-c1ccc(F)cc1
  8 | 5
25: O=c1c(Cl)c(N2CCNCC2)cnn1C12CC3CC(CC(C3)C1)C2
  5 | 3
26: O=C(NCc1cccs1)c1cccnc1N1CCN(C(=O)NCc2ccco2)CC1
  -3 | -16
27: Cc1nc(CCNC(=O)c2cccc3ccnn23)cc(=O)[nH]1
  6 | 4
28: CN1CCCC(C(=O)Nc2ccccc2C(=O)NCc2ccccn2)C1 (stereo unspecified)
  9 | 4
29: O=C1C(=O)N(CCCn2ccnc2)C(c2cccnc2)C1=C(O)c1ccc(Cl)cc1 (stereo unspecified)
  0 | 25
30: CC(=O)NC1=NC(=O)C(C)S1 (stereo unspecified)
  2 | -1

Value order: NPYLR7 agonist | NPYLR7 agonist max-min
31: CCCc1nccn1Cc1nc(-c2ccc(OC)cc2)no1
  2 | 2
32: COc1ccc(C)cc1-n1cnnc1C(C)OC (stereo unspecified)
  -5 | -5
33: COCCn1cc(NC(=O)N2CCN(C)CC2)c2ccccc21
  21 | 10
34: Cc1cc(N2CCC3(CC2)OCCO3)c2nncn2n1
  19 | 9
35: CCN(Cc1nc(C)c(C(C)=O)s1)C(=O)OC(C)(C)C
  2 | 1
36: O=C(NCCN1CCOCC1)c1cnn2c(C(F)(F)F)cc(-c3ccco3)nc12
  6 | 5
37: Cc1c(S(=O)(=O)NC2CCCCCC2)c(=O)n(C)c(=O)n1C
  -2 | -3
38: CCNC(=O)C1CCN(Cc2nc(-c3sccc3C)oc2C)C1 (stereo unspecified)
  -5 | -10
39: CCCN(C)c1cc(CC)nc(SCc2cccc(C(=O)O)c2)n1
  -14 | -5
40: O=[N+]([O-])c1cccc(-c2nnc(-c3ccccc3Cl)o2)c1
  -1 | 2
41: NCc1n[nH]c(=O)n1-c1ccc2c(c1)OCO2
  0 | -1
42: c1ccc(-c2ccc(-c3nc(-c4ccncc4)no3)cc2)cc1
  -11 | -19
43: Cc1nc2sccn2c(=O)c1NC(=O)CC(C)(C)C
  11 | -4
44: CN(CC1CCN(CCc2ccc(F)cc2)CC1)C(=O)c1ccc(-c2ncc[nH]2)s1
  2 | -2
45: CCN1C(=S)NC(c2ccc(NC(=O)c3ccc(Br)cc3)cc2)C(C(=O)OCC(C)C)=C1C (stereo unspecified)
  18 | 15
46: COCCNC(=O)c1cc(NC(=O)c2ccccc2Br)ccc1N1CCC(Cc2ccccc2)CC1
  1 | 6
47: Cc1cnc(NC(=O)C2(C)CCCN(C(C)C)C2)s1 (stereo unspecified)
  0 | -2
48: O=c1c2c(n3c(=S)[nH]nc3n1Cc1ccco1)-c1ccccc1CC21CCCCC1
  -2 | 1
49: O=C(NCCn1nc(-c2cccs2)ccc1=O)C1CC1
  0 | -2
50: Cc1ccc(C)n1-c1ccc(C(=O)N2CCN(S(=O)(=O)c3ccccc3[N+](=O)[O-])CC2)cc1
  -1 | -1
51: O=C(CCN1CCCC(N2CCCC2=O)C1)c1ccc(F)cc1 (stereo unspecified)
  5 | 1
52: Cc1cc(C)cc(-n2ncc3c2CCCC3NC(=O)C#Cc2ccccc2)c1 (stereo unspecified)
  13 | 9
53: CC(Sc1nnc(C2CC2)n1C1CC1)c1nnc(-c2ccccc2)o1 (stereo unspecified)
  0 | 3
54: O=C(NCc1cn[nH]c1-c1ccc(F)cc1)c1cccc(Cn2cccn2)c1
  5 | 0
55: CN(C)CCN(CC1CCCN(Cc2ccccc2F)C1)C(=O)c1cccc(N(C)C)c1 (stereo unspecified)
  23 | 12
56: CN(Cc1ccccc1)c1cc(C(C)(C)C)nc(SCc2ccc(C(=O)NCC3CCCO3)o2)n1 (stereo unspecified)
  5 | 22
57: COc1cccc(F)c1-c1ccc(-c2nc(C)no2)cn1
  -1 | 10
58: CCc1csc(CNC(=O)c2cc(COc3ccccc3F)[nH]n2)n1
  -3 | -4
59: CCCCOC(=O)C1=C(C)N(C)C(=O)NC1c1ccc(Cl)c(Cl)c1 (stereo unspecified)
  0 | -4
60: C=CCOc1c(Cl)cc(C2c3ccc(O)cc3OC(=N)C2C#N)cc1OC (stereo unspecified)
  17 | 19

Arranged by length of the SMILES (lowest first): 6 of the compounds above
Value order: NPYLR7 agonist | NPYLR7 agonist max-min
32: COc1ccc(C)cc1-n1cnnc1C(C)OC (stereo unspecified)
  -5 | -5
49: O=C(NCCn1nc(-c2cccs2)ccc1=O)C1CC1
  0 | -2
42: c1ccc(-c2ccc(-c3nc(-c4ccncc4)no3)cc2)cc1
  -11 | -19
53: CC(Sc1nnc(C2CC2)n1C1CC1)c1nnc(-c2ccccc2)o1 (stereo unspecified)
  0 | 3
25: O=c1c(Cl)c(N2CCNCC2)cnn1C12CC3CC(CC(C3)C1)C2
  5 | 3
23: O=C(Cc1c(F)cccc1F)N1CCc2c(sc3[nH]c(=O)n(Cc4ccco4)c(=O)c23)C1
  4 | 4

Part of the list above, tab-delimited:
item	compound	NPYLR7 agonist	NPYLR7 agonist max-min
17	CCN1CCN(c2c(CN(C(=O)c3ccc([N+](=O)[O-])cc3)C3CC3)c(C)nn2-c2cccc(F)c2)CC1	0	0
18	Cc1ccc(NC(=O)c2cccc(N3CCCC3=O)c2)cc1Cl	1	1

(continued)
Value order: NPYLR7 agonist | NPYLR7 agonist max-min
61: OC(CNCc1csc(-c2ccsc2)n1)c1ccc(F)c(F)c1 (stereo unspecified)
  7 | 3
62: O=C(OC[C@H]1O[C@H](OC(=O)c2cc(O)c(O)c(OC(=O)c3cc(O)c(O)c(O)c3)c2)[C@H](OC(=O)c2cc(O)c(O)c(OC(=O)c3cc(O)c(O)c(O)c3)c2)[C@@H](OC(=O)c2cc(O)c(O)c(OC(=O)c3cc(O)c(O)c(O)c3)c2)[C@@H]1OC(=O)c1cc(O)c(O)c(OC(=O)c2cc(O)c(O)c(O)c2)c1)c1cc(O)c(O)c(OC(=O)c2cc(O)c(O)c(O)c2)c1
  -13 | -17
63: Cn1cc(NC(=O)c2cn[nH]c2-c2cccc(OC(F)F)c2)cn1
  3 | 3
64: Cc1ccc(C2(c3noc(CN(C)Cc4cccs4)n3)CCCC2)cc1
  -2 | -5
65: c1cncc(NCCCNc2nc(-c3ccncc3)nc3c2CCNC3)c1
  1 | 2
66: Cc1cc(=N)c2ccccc2n1C
  -11 | -14
67: COc1ccc(-n2ncc3c2CC(C)(C)CC3NC(=O)Cn2cc3ccccc3n2)cc1 (stereo unspecified)
  18 | 5
68: Fc1c(F)c(F)c(N2CCN(Cc3ccc4c(c3)OCO4)CC2)c(F)c1F
  -3 | -1
69: COCCn1c(=NC(=O)c2cccc(S(C)(=O)=O)c2)sc2cc(F)cc(F)c21
  5 | 2
70: CCOC(=O)c1c(CN2CCCCC2)n(-c2ccccc2)c2ccc(O)cc12
  2 | 1
71: O=C(CSCc1cccs1)N1CCCC1
  5 | 1
72: Cn1c(=O)[nH]c(=O)c2c1nc(SCc1c(F)cccc1Cl)n2Cc1ccccc1
  1 | 17
73: CC1c2cccn2CCN1C(=O)c1ccc(C#CC(C)(C)O)o1 (stereo unspecified)
  -13 | -12
74: O=S(=O)(Nc1ccc(OC(F)F)c(Cl)c1)c1ccc(Cl)s1
  -1 | -1
75: CCCc1nn(C)c(C(=O)Oc2cc(C(=O)OC)ccc2C)c1Cl
  13 | 13
76: COc1ccc(C)cc1NS(=O)(=O)c1ccc(F)c(F)c1
  29 | 16
77: CCCn1ccc2ccc(NC(=O)NC3CCC(=O)N(C)C3)cc21 (stereo unspecified)
  5 | 1
78: CCOC(=O)C1CCCN(Cc2ccc([N+](=O)[O-])o2)C1 (stereo unspecified)
  1 | 0
79: CN(C)S(=O)(=O)c1cccc(Cn2c(=O)c(C#N)c3n(c2=O)CCC3)c1
  12 | 5
80: C=S(NS(=O)(=O)c1ccc(C)cc1)c1ccccc1 (stereo unspecified)
  -6 | -8
81: O=C(CCc1ccsc1)Nc1nc(-c2ccco2)c(-c2ccco2)s1
  5 | 11
82: COCCN(Cc1nc2ccccc2[nH]1)Cc1ccccc1F
  -9 | -9
83: Cc1cccc(Cn2c(=O)c(C(=O)N(C)C3CCCCC3)nn(-c3cc(C)cc(C)c3)c2=O)c1
  -3 | 5
84: S=C(NCCN1CCOCC1)N1CCc2ccccc21
  1 | 0
85: Cc1cccc2nc(COC(=O)c3csc(-c4ccsc4)n3)cc(=O)n12
  -2 | -3
86: COc1ccc2c(c1)CCc1cnc(-n3ncc(C(=O)N(C)CC4COCCO4)c3C3CC3)nc1-2 (stereo unspecified)
  28 | 22
87: Brc1ccc2nc(CCc3ccccc3)c(NC3CCCCC3)n2c1
  2 | 13
88: NC(=O)c1nnn(Cc2cccc([N+](=O)[O-])c2)c1N
  -3 | -6
89: Cc1nnc2ccc(-c3cccc(NS(=O)(=O)c4ccccc4)c3)nn12
  -14 | -13
90: CC(=O)N1CCN2C(=O)C1CCCC(=O)c1cc(C(C)C)ccc12 (stereo unspecified)
  -6 | -7

Value order: NPYLR7 agonist | NPYLR7 agonist max-min
91: CCCC(C)(NS(=O)(=O)c1ccc(S(C)(=O)=O)cc1)C(=O)OC (stereo unspecified)
  6 | 2
92: CC(C(=O)N1CCc2ccccc21)N1C(=O)c2ccccc2C1=O (stereo unspecified)
  3 | -2
93: CC(C)c1ccc(S(=O)(=O)CC(O)CO)cc1 (stereo unspecified)
  -5 | -11
94: COc1ccc(C(=O)N2CCc3sccc3C2c2ccc(F)cc2)c(OC)c1 (stereo unspecified)
  -3 | 8
95: Cc1ccc(-c2nc(C(N)=O)c3[nH]c(=O)n(-c4ccc(C(C)(C)C)cc4)c3n2)cc1
  -3 | -6
96: N#Cc1ccccc1CSc1nnc(NC(=O)COCc2ccccc2)s1
  28 | 29
97: COc1cccc(Cn2c(C(=O)N3CCN(C(=O)C4C[C@H]4c4ccccc4)C(C)C3)cc3ccoc32)c1 (stereo partly specified)
  4 | 8
98: CC(NCc1ccc(-c2ccccc2)cc1)c1ccncc1 (stereo unspecified)
  6 | -2
99: CCOC(=O)C1CCN(C(=O)c2nc(-c3ccco3)sc2C)CC1
  6 | 5
100: OCC1(CC2CCCCO2)CCN(Cc2cccc3nccnc23)CC1 (stereo unspecified)
  15 | 5
101: CCNC(C)c1ccc(-c2cccc(OC)c2)cc1 (stereo unspecified)
  -2 | -8
102: Cc1ccnc(CC(C)N(C)C(=O)c2cc(C)[nH]c(=O)c2)c1 (stereo unspecified)
  1 | -3
103: N#Cc1cccc(C(=O)NCCc2nnc3c(C(F)(F)F)cccn23)c1
  10 | 3
104: O=C(NC(Cc1ccccc1)c1ccccc1)c1ccc(Oc2nc(Cc3ccc(F)cc3)ns2)cc1 (stereo unspecified)
  -4 | 2
105: NC(=O)c1cccc(CC2CCN(C(=O)COc3ccc(Cl)cc3)C2)c1 (stereo unspecified)
  -2 | -2
106: OCCC1CN(Cc2cccn2-c2nccs2)CCN1Cc1cccs1 (stereo unspecified)
  1 | -2
107: Cc1nc(N2CCN(c3ccccc3)CC2)nc2c1C(=O)CC(c1ccco1)C2 (stereo unspecified)
  15 | 5
108: O=C(/C=C/c1ccc(Br)s1)N1CCN(CCc2cccs2)CC1
  7 | 13
109: COc1cccc(CN2CCCC(NCc3ccc(OC)c(Cn4cccn4)c3)C2)c1 (stereo unspecified)
  -5 | -6
110: Cc1nc(CNC(=O)c2ccc(C3CCCO3)s2)nc2c1CCCC2 (stereo unspecified)
  14 | -3
111: O=S(=O)(Nc1cc2c(cc1Br)OCCO2)c1ccccc1
  -1 | 45
